# Vaccinia inh = Vaccinia orthopox stage-specific inhibition; Vaccinia-infected cells, mCherry/Venus stage reporter fluorescence; stronger effect = lower value; some inactives read as strong as hits; activity change (mCherry), % (no concentration beside the values); 89,000 tested, 0.01% active;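 active = mCherry past -33% and 40 or more points under the early reporter, replicates agreeing; inconclusive = past -33% without that gap or agreement; tested in A549 cells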;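 note: scaled between vehicle wells and reference inhibitor wells; 23 nL library stock went into each well; one replicate is shown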
# Vaccinia inh Venus = further read-out of Vaccinia inh, marked with its call; activity change (Venus), %; measured here: Venus reporter, other viral stage;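 negative = less Venus signal; first of two replicates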
# * marks the source's active call; other numbers are inactive results; ? = inconclusive; / = not tested or not shown.
Molecule | Vaccinia inh Venus | Vaccinia inh
COc1ccc(NC(=O)Nc2ccc3c(c2)[C@H]2C[C@H](CC(=O)N4CCc5ccccc5C4)O[C@H](CO)[C@H]2O3)cc1 | -15.0 | -30.8
CCc1cnc(N2[C@H](C#N)[C@@H](c3ccccc3C3=CCCCC3)[C@@H]2CO)s1 | -4.6 | -9.6
COc1ccc(NC(=O)N(C)C[C@@H]2OCCCC[C@H](C)Oc3ccc(NS(=O)(=O)c4ccc(Cl)cc4)cc3C(=O)N([C@@H](C)CO)C[C@@H]2C)cc1 | -14.5 | -23.3
O=C(c1cccc(F)c1)N1CC2(C1)[C@H](c1ccccc1)[C@H](CO)N2C(=O)C1CCCC1 | 12.0 | 7.7
CN(C)CCCNC(=O)C[C@H]1CC[C@@H](NS(=O)(=O)c2ccccc2)[C@@H](CO)O1 | 3.6 | 2.6
CC(C)CC#Cc1ccc2c(c1)O[C@@H](CN(C)CC1CCOCC1)[C@H](C)CN([C@@H](C)CO)S2(=O)=O | / | ?
C[C@H]1CCCCO[C@H](CN(C)C(=O)CCCN(C)C)[C@@H](C)CN([C@@H](C)CO)C(=O)c2cc(NC(=O)Nc3cccc4ccccc34)ccc2O1 | 9.4 | 10.0
C[C@@H]1CN([C@H](C)CO)C(=O)c2cccc(NC(=O)Nc3ccc(F)cc3)c2O[C@@H]1CN(C)S(=O)(=O)c1ccccc1 | -18.2 | -24.6
COCC(=O)Nc1ccc2c(c1)C(=O)N(C)[C@@H]1CC[C@H](CC(=O)NCC(F)(F)F)O[C@H]1CO2 | 3.0 | 15.4
C[C@H]1CN([C@@H](C)CO)C(=O)c2cccc(NS(=O)(=O)c3ccccc3)c2O[C@H]1CN(C)Cc1ccc2c(c1)OCO2 | 17.3 | 16.7
C[C@@H]1CCCCO[C@@H](CN(C)S(=O)(=O)c2ccc(Cl)cc2)[C@H](C)CN([C@H](C)CO)C(=O)c2cc(N(C)C)ccc2O1 | / | ?
C[C@H](O)C#Cc1ccc2c(c1)O[C@H](CN(C)Cc1ccncc1)[C@@H](C)CN([C@@H](C)CO)S2(=O)=O | -19.6 | -18.8
C[C@@H]1CN([C@H](C)CO)C(=O)Cc2cc(NS(=O)(=O)c3ccc(Cl)cc3)ccc2O[C@@H]1CN(C)Cc1ccc(C(F)(F)F)cc1 | / | ?
COc1ccccc1-c1ccc2c(c1)O[C@H](CN(C)S(=O)(=O)c1ccc(C)cc1)[C@H](C)CN([C@@H](C)CO)S2(=O)=O | / | ?
C[C@@H]1CN([C@@H](C)CO)S(=O)(=O)c2ccc(/C=C/c3ccccc3)cc2O[C@@H]1CN(C)Cc1cncnc1 | -21.5 | -33.9
CCC(=O)N1CC(=O)N2[C@@H](CO)[C@H](c3ccc(C#Cc4cccnc4)cc3)[C@@H]2C1 | -6.4 | -1.3
COc1cccc(NC(=O)N(C)C[C@H]2Oc3cc(-c4ccccc4OC)ccc3S(=O)(=O)N([C@@H](C)CO)C[C@H]2C)c1 | -20.5 | -24.0
C/C=C/c1ccc2c(c1)O[C@@H](CN(C)Cc1cccnc1)[C@H](C)CN([C@H](C)CO)S2(=O)=O | -1.0 | -4.7
O=C(CC1CC1)N1[C@H](CO)[C@@H](c2ccccc2)C12CN(Cc1ccccc1F)C2 | 8.2 | -3.0
CCCNC(=O)N(C)C[C@@H]1Oc2ncc(-c3ccccc3)cc2C(=O)N([C@@H](C)CO)C[C@@H]1C | 3.6 | 11.5
COc1ccc2c3c([nH]c2c1)[C@H](CO)N(C(=O)c1cccc(F)c1)CC31CN(C(=O)c2cccc(F)c2)C1 | -21.0 | -29.6
Cc1noc(C)c1NC(=O)Nc1ccc2c(c1)C(=O)N([C@H](C)CO)C[C@@H](C)[C@@H](CN(C)C(=O)C1CCCCC1)OCCCC[C@H](C)O2 | 1.9 | 9.6
C[C@@H]1CN([C@@H](C)CO)C(=O)c2ccccc2-c2ccccc2CO[C@H]1CN(C)C(=O)c1ccccc1 | 4.5 | 1.8
C=CCOC(=O)C1=C[C@@H](c2ccc3c(c2)OCO3)C[C@@H](OCCCCO)O1 | 7.5 | 5.9
Cc1cccc(S(=O)(=O)N2CCCCN3[C@H](C2)[C@H](c2ccc(-c4cccnc4)cc2)[C@@H]3CO)c1 | -21.3 | -12.1
CN1C(=O)c2cc(NC(=O)C3CCCCC3)ccc2OC[C@H]2O[C@@H](CC(=O)NCCc3ccncc3)CC[C@@H]21 | 12.0 | 7.6
CO[C@H]1CN(C)C(=O)c2ccc(NC(C)=O)cc2OC[C@H](C)N(C(=O)Cc2cccnc2)C[C@H]1C | 2.8 | 10.6
C/C=C/c1cnc2c(c1)C(=O)N([C@@H](C)CO)C[C@H](C)[C@H](CN(C)C(=O)C1CCCCC1)O2 | 16.7 | 15.9
C[C@H]1CN([C@@H](C)CO)C(=O)c2cc(NC(=O)CCCCCC(=O)Nc3ccccc3N)ccc2O[C@@H]1CN(C)CC1CCCCC1 | -22.3 | -25.8
C[C@@H]1CN([C@H](C)CO)C(=O)c2cccc(NS(=O)(=O)c3cccs3)c2O[C@@H]1CN(C)C(=O)Nc1ccc(F)cc1 | -6.9 | 6.2
COc1ccc(S(=O)(=O)N(C)C[C@H]2Oc3cc(C#CC4CCCCC4)ccc3S(=O)(=O)N([C@H](C)CO)C[C@H]2C)cc1 | / | ?
Cc1noc(C)c1S(=O)(=O)Nc1ccc2c(c1)C(=O)N([C@@H](C)CO)C[C@@H](C)[C@@H](CN(C)Cc1ccc(C(=O)O)cc1)OCCCC[C@@H](C)O2 | -2.6 | -0.4
CN(C)C(=O)c1ccc(-c2ccc(C3[C@H]4CNC[C@@H]3N4S(=O)(=O)c3ccc(F)cc3)cc2)cc1 (some centres undefined) | -31.1 | -27.4
CO[C@@H]1CN(C)C(=O)c2ccc(NC(=O)C3CC3)cc2OC[C@H](C)N(CC2CCCC2)C[C@H]1C | 0.6 | -6.5
Cc1cccc(S(=O)(=O)N2C[C@H](O)COC[C@@H]3O[C@H](CC(=O)Nc4ccccc4)CC[C@H]32)c1 | -5.0 | -8.7
Cc1ccc(S(=O)(=O)NCC[C@@H]2CC[C@@H](NC(=O)c3cnccn3)[C@H](CO)O2)cc1 | 6.3 | -1.5
COc1ccc(CN(C)C[C@H]2Oc3c(NS(=O)(=O)c4ccc(F)cc4)cccc3C(=O)N([C@H](C)CO)C[C@H]2C)cc1 | -1.2 | -6.1
NCC[C@@H]1CC[C@H](NS(=O)(=O)Cc2ccccc2)[C@@H](CO)O1 | 1.3 | -0.6
O=C(C[C@@H]1C[C@H]2c3cc(NC(=O)NC4CCCC4)ccc3O[C@H]2[C@H](CO)O1)NCc1cccc(F)c1 | 3.6 | 1.6
CN1[C@H](C(=O)NCCN2CCCC2)[C@@H](CO)[C@@H]2Cn3c(ccc(/C=C/c4ccccc4)c3=O)[C@@H]21 | 12.9 | 11.7
CO[C@H]1O[C@H](CO)[C@@H](OC(=O)Nc2cccc(F)c2)[C@H](OC(=O)Nc2ccccc2)[C@H]1OC(=O)Nc1ccccc1 | / | ?
CCCN(C)C[C@H]1OCCCC[C@H](C)Oc2ccc(NS(=O)(=O)c3cccs3)cc2C(=O)N([C@@H](C)CO)C[C@H]1C | -0.8 | 4.1
COc1ccccc1S(=O)(=O)N[C@@H]1CC[C@@H](CC(=O)NCc2cccc(F)c2)O[C@H]1CO | -8.0 | -5.7
CO[C@@H]1CN(C)C(=O)c2ccc(NC(=O)Nc3ccccc3F)cc2OC[C@@H](C)N(C(=O)c2cnccn2)C[C@H]1C | 0.4 | 8.9
C[C@@H]1CCCCO[C@H](CN(C)Cc2ccncc2)[C@@H](C)CN([C@H](C)CO)C(=O)c2cc(NS(=O)(=O)c3ccc(Cl)cc3)ccc2O1 | 1.2 | 6.1
CNC[C@H]1Oc2ccc(NS(=O)(=O)c3ccccc3)cc2CC(=O)N([C@H](C)CO)C[C@@H]1C | 5.4 | 21.2
Cc1ccc(S(=O)(=O)Nc2ccc3c(c2)C(=O)N([C@H](C)CO)C[C@H](C)[C@H](CN(C)C(=O)Nc2c(C)noc2C)OCCCC[C@@H](C)O3)cc1 | 15.6 | 23.9
O=C(NCC[C@H]1CC[C@H](NC(=O)c2cccnc2)[C@H](CO)O1)Nc1ccc(C(F)(F)F)cc1 | -19.2 | -27.3
O=C(C[C@@H]1CC[C@@H]2[C@H](COC[C@@H](O)CN2S(=O)(=O)c2ccccc2)O1)NCc1ccc2c(c1)OCO2 | 7.2 | 10.9
CNC[C@H]1Oc2cc(C#CCC(C)C)ccc2S(=O)(=O)N([C@H](C)CO)C[C@@H]1C | -22.2 | -25.8

# Compound profiles, from the list above:
# CO[C@@H]1CN(C)C(=O)c2ccc(NC(=O)C3CC3)cc2OC[C@H](C)N(CC2CCCC2)C[C@H]1C is entered as Vaccinia inh Venus = 0.6; Vaccinia inh = -6.5
# O=C(C[C@@H]1CC[C@@H]2[C@H](COC[C@@H](O)CN2S(=O)(=O)c2ccccc2)O1)NCc1ccc2c(c1)OCO2 is entered as Vaccinia inh Venus = 7.2; Vaccinia inh = 10.9

# Additional results.
Molecule | Vaccinia inh Venus | Vaccinia inh
CN(C)CC#Cc1ccc([C@H]2[C@H]3CN(C(=O)c4cccc(F)c4)CC(=O)N3[C@H]2CO)cc1 | 4.0 | 10.1
CNC(=O)C[C@H]1CC[C@H]2[C@H](COc3ccc(NC(=O)c4cccc(OC)c4)cc3C(=O)N2C)O1 | 3.7 | 2.9
COc1ccc2c3c(n(C)c2c1)[C@H](CO)N(C(=O)NC(C)C)CC31CN(CC2CCOCC2)C1 | 2.2 | 16.7
Cc1noc(C)c1NC(=O)N(C)C[C@@H]1OCc2cnnn2CCCC(=O)N([C@H](C)CO)C[C@H]1C | 0.8 | 8.1
Cc1noc(C)c1NC(=O)N(C)C[C@@H]1Oc2cc(C#CCC(C)C)ccc2S(=O)(=O)N([C@H](C)CO)C[C@@H]1C | -27.7 | -24.8
C[C@@H]1CN([C@H](C)CO)C(=O)Cc2cc(NC(=O)Cn3cnnn3)ccc2O[C@H]1CN(C)Cc1ccc(C(F)(F)F)cc1 | -7.2 | -2.1
C[C@@H]1CN([C@H](C)CO)S(=O)(=O)c2ccc(C#Cc3ccncc3)cc2O[C@H]1CN(C)C(=O)C1CC1 | -13.4 | 1.9
C[C@H](CO)N1C[C@H](C)[C@H](CN(C)CC2CC2)Oc2cc(-c3ccccc3F)ccc2S1(=O)=O | -5.3 | -5.9
CC(C)NC(=O)Nc1ccc2c(c1)CC(=O)N([C@H](C)CO)C[C@@H](C)[C@@H](CN(C)Cc1ccccc1)O2 | 4.3 | 0.6
O=C(N[C@H]1CC[C@H](CCNC(=O)C2CCCCC2)O[C@H]1CO)c1ccccn1 | 1.3 | 0.5
Cc1noc(C)c1S(=O)(=O)Nc1ccc2c(c1)C(=O)N([C@H](C)CO)C[C@@H](C)[C@@H](CN(C)C)OCCCC[C@@H](C)O2 | 9.6 | 15.6
CCCN1C[C@@H](C)[C@@H](OC)CN(C)C(=O)c2ccc(NS(=O)(=O)c3ccccc3)cc2OC[C@H]1C | 6.3 | -5.3
C[C@H](CO)N1C[C@H](C)[C@H](CN(C)S(=O)(=O)c2ccccc2)Oc2ncc(C#Cc3ccc(F)cc3)cc2C1=O | -28.9 | -32.1
C[C@H]1CN([C@@H](C)CO)C(=O)c2cc(NS(=O)(=O)c3ccc(Cl)cc3)ccc2O[C@@H]1CN(C)C(=O)Nc1ccccc1 | 5.8 | 3.1
COCCNC(=O)C[C@H]1C[C@@H]2c3cc(NC(=O)NC4CCCCC4)ccc3O[C@@H]2[C@@H](CO)O1 | 9.3 | 9.3
COCCNC(=O)C[C@@H]1C[C@H]2c3cc(NC(=O)Nc4ccc(C(F)(F)F)cc4)ccc3O[C@H]2[C@@H](CO)O1 | 1.2 | -6.0
O=C(C1CCC1)N1CC(=O)N2[C@H](C1)[C@H](c1ccc(-c3ccccc3F)cc1)[C@@H]2CO | -5.6 | 3.4
COc1ccc(-c2ccccc2[C@H]2[C@@H](CO)N(C(=O)C3CC3)[C@H]2C#N)cc1 | 5.3 | 6.8
COc1ccc(CN(C)C[C@H]2OCCCC[C@@H](C)Oc3ccc(NS(=O)(=O)c4ccc(F)cc4)cc3C(=O)N([C@H](C)CO)C[C@@H]2C)cc1 | -9.3 | -6.7
C[C@H]1CN([C@@H](C)CO)C(=O)c2cccc(NC(=O)Nc3ccc4c(c3)OCO4)c2O[C@@H]1CN(C)C(=O)Nc1ccc(C(F)(F)F)cc1 | 6.7 | 21.6
CCCN(C)C[C@H]1Oc2ncc(C#CCC(C)C)cc2C(=O)N([C@@H](C)CO)C[C@@H]1C | -13.8 | -23.4
Cc1ccccc1S(=O)(=O)N[C@@H]1CC[C@@H](CCNS(=O)(=O)c2cccc(F)c2)O[C@@H]1CO | 4.1 | -5.7
C[C@@H]1CN([C@@H](C)CO)C(=O)c2cc(C3=CCCC3)cnc2O[C@@H]1CN(C)C(=O)Cc1ccncc1 | 24.8 | 22.5
COc1ccc(NC(=O)Nc2cccc3c2O[C@H](CN(C)CC2CC2)[C@@H](C)CN([C@@H](C)CO)C3=O)cc1 | 9.4 | 8.4
COc1ccc(NC(=O)N(C)C[C@@H]2Oc3c(NC(=O)Nc4ccccc4)cccc3C(=O)N([C@@H](C)CO)C[C@@H]2C)cc1 | -19.2 | -29.2
CCC(=O)N1CCCCN2[C@H](C1)[C@@H](c1ccc(/C=C/c3ccccc3)cc1)[C@@H]2CO | / | ?
CC(C)C#Cc1ccc([C@H]2[C@H](CO)N3C(=O)CN(C(=O)NC4CCCC4)C[C@@H]23)cc1 | 14.1 | 6.3
C[C@H](CO)N1C[C@H](C)[C@H](CN(C)Cc2ccncc2)Oc2ccc(N(C)C)cc2CC1=O | -18.6 | -17.3

# High-throughput results from PubChem BioAssay.

# The list is partial, so the mix of outcomes need not match the whole.
